# Screening data deposited in PubChem by several laboratories.
# ugtP null kill: compounds lethal to S. aureus RN4220 ugtP deletion mutant; OD600 growth, 16 h; some inactives read as strong as hits; growth inhibition, % (concentration not given with the values); 330,000 compounds, 0.54% hits;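 active = z-score under -3 and OD600 up to 0.15 on both plates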;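 also: plate controls were untreated wells for no effect and antibiotic for full effect; wells of about 80 µL received 100 nL stock; the first replicate is given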
# PrP UTR inh: inhibition of PrP 5' UTR reporter expression. 340,000 compounds, 0.35% hits. cell-based PrP 5' UTR mRNA reporter, plate reader. inhibition, % (no concentration beside the values). AID 488862;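 active = every replicate at 50% or more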;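 also: 0 = median of the neutral control wells; tested in H4 reporter cells; numbers are from one replicate; inactives centre near -14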
# Autofluor counter: compound fluorescence in toxin protease inhibitor counterscreen | compound autofluorescence counterscreen, microsphere flow cytometry; stronger effect = higher value | fluorescence intensity (test concentration not listed) | 360,000 compounds, 3.1% hits | AID 624483;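 active = at least 3 SD above the mean of all compounds, about 16000 in these data; inconclusive = too few beads counted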;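 also: 100 nL of 1 mM stock went into each well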
# BJeLR viability: BJeLR cell viability loss | BJeLR (HRASV12) viability, CellTiter-Glo ATP luminescence, 48 h; reference of the scale not given here | inhibition, % (no concentration beside the values) | 300,000 compounds, 0.17% hits | AID 1554;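 active = replicate mean above 50%; inconclusive = above 50% but judged a plate artefact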;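 also: 50 nL library stock added to about 25 µL; numbers are from one replicate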
# RN4220 kill: kills Staphylococcus aureus RN4220. S. aureus RN4220 growth, OD600, 16 h. inhibition, % (concentration not given with the values). 330,000 compounds, 0.33% hits. AID 1259311;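 active = z-score of -3 or lower and OD600 up to 0.18 on both plates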;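 also: plate controls were untreated cells for no effect and reference antibiotic for full effect; stock transfer was 100 nL into about 80 µL; one replicate is shown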
# Mtb hypoxia inh: reduces hypoxia-regulated biosensor signal in M. tuberculosis. M. tuberculosis hypoxia-regulated fluorescent reporter, fluorescence. fluorescence inhibition, % (concentration not given with the values). 300,000 compounds, 0.1% hits;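 active = 35 to 45% if threefold the growth effect, above 45% if 1.5-fold the growth effect; inactive = the rest, general growth blockers included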;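 also: wells of about 50 µL received 100 nL stock; 0% = vehicle wells and 100% = reference inhibitor wells; whole bacteria with a GFP reporter of the hypoxia response; strong numbers were not always called active; many hits fall short of the cut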
# Mtb hypoxia inh growth: also measured in Mtb hypoxia inh; calls as there; growth inhibition, %; measured here: M. tuberculosis growth (absorbance);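 0% = vehicle and 100% = reference antibiotic; read after six days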
# Numbers without * were called inactive; ? = inconclusive; · = not tested or not shown. Rows were taken by chance (roughly 4% active in at least one column).
# The opening 10 entries (preview)
no.	mol	ugtP null kill	PrP UTR inh	Autofluor counter	BJeLR viability	RN4220 kill	Mtb hypoxia inh	Mtb hypoxia inh growth
1	COc1cc2c(=O)n(CCC(=O)NCC3CCCO3)c(=O)n(CC(=O)Nc3ccc(C)cc3C)c2cc1OC (stereo not given)	7.8	-9.8	2963	2.9	-0.2	2.6	2.6
2	CSc1ccc(S(=O)(=O)NC2CC2)cc1	0.6	-48.7	3156	-2.1	2.2	8.6	7.5
3	CCNc1nc(SCC(N)=O)nc2sc3c(c12)CCN(C)C3	14.6	-21.2	4276	15.4	-3.3	11.1	5.1
4	CCCCOc1ccc(C(O)(CCC)CCN2CCOCC2)cc1 (stereo not given)	6.1	-12.5	2014	0.7	5.9	2.2	1.3
5	Fc1ccc(-n2nnc(-c3cnc4ccccc4c3)n2)cc1	11.6	71.5*	3611	8.1	7.9	4.2	-18.6
6	O=C(C1COc2ccccc2O1)N1CCN(Cc2ccc(Br)cc2F)CC1 (stereo not given)	9.6	-5.1	6089	-6.2	-1.5	7.8	5.8
7	COc1cc(/C=C2/SC(=S)N(c3ccccc3)C2=O)ccc1Oc1nc(N2CCOCC2)nc(N2CCOCC2)n1	-0.9	-9.5	2064	4.2	10.1	-6.6	5.8
8	Cc1cccc2cc(CN(Cc3ccc4c(c3)OCO4)Cc3nnnn3C3CCCC3)c(=O)[nH]c12	-9.8	-12.8	4229	-4.4	1.1	1.5	-0.6
9	C=CCNC(=O)COC(=O)C1CCN(S(=O)(=O)c2ccc3c(c2)OCCO3)CC1	-3.9	-2.4	5973	7.4	-7.4	-1.9	-1.5
10	Nc1nonc1-n1nnc(C(=O)N/N=C/c2ccc3c(c2)OCO3)c1-c1ccccc1	·	-2.7	5025	0.4	·	·	·

# All compounds of this part (from the top)
no.	mol	ugtP null kill	PrP UTR inh	Autofluor counter	BJeLR viability	RN4220 kill	Mtb hypoxia inh	Mtb hypoxia inh growth
1	COc1cc2c(=O)n(CCC(=O)NCC3CCCO3)c(=O)n(CC(=O)Nc3ccc(C)cc3C)c2cc1OC (stereo not given)	7.8	-9.8	2963	2.9	-0.2	2.6	2.6
2	CSc1ccc(S(=O)(=O)NC2CC2)cc1	0.6	-48.7	3156	-2.1	2.2	8.6	7.5
3	CCNc1nc(SCC(N)=O)nc2sc3c(c12)CCN(C)C3	14.6	-21.2	4276	15.4	-3.3	11.1	5.1
4	CCCCOc1ccc(C(O)(CCC)CCN2CCOCC2)cc1 (stereo not given)	6.1	-12.5	2014	0.7	5.9	2.2	1.3
5	Fc1ccc(-n2nnc(-c3cnc4ccccc4c3)n2)cc1	11.6	71.5*	3611	8.1	7.9	4.2	-18.6
6	O=C(C1COc2ccccc2O1)N1CCN(Cc2ccc(Br)cc2F)CC1 (stereo not given)	9.6	-5.1	6089	-6.2	-1.5	7.8	5.8
7	COc1cc(/C=C2/SC(=S)N(c3ccccc3)C2=O)ccc1Oc1nc(N2CCOCC2)nc(N2CCOCC2)n1	-0.9	-9.5	2064	4.2	10.1	-6.6	5.8
8	Cc1cccc2cc(CN(Cc3ccc4c(c3)OCO4)Cc3nnnn3C3CCCC3)c(=O)[nH]c12	-9.8	-12.8	4229	-4.4	1.1	1.5	-0.6
9	C=CCNC(=O)COC(=O)C1CCN(S(=O)(=O)c2ccc3c(c2)OCCO3)CC1	-3.9	-2.4	5973	7.4	-7.4	-1.9	-1.5
10	Nc1nonc1-n1nnc(C(=O)N/N=C/c2ccc3c(c2)OCO3)c1-c1ccccc1	·	-2.7	5025	0.4	·	·	·
11	COc1ccc(CNCCc2c[nH]c3ccccc23)cc1OC	-0.9	3.8	3879	1.9	0.8	1.9	7.1
12	Cc1nn(-c2ccccc2)c(Cl)c1C(=O)NCc1cccs1	-7.5	-14.0	2685	-6.1	-0.9	-0.5	17.0
13	OC1CCCN(Cc2cn(Cc3ccccc3)nc2-c2cc3ccccc3o2)C1 (stereo not given)	0.4	-2.0	2315	-1.8	-1.7	-5.5	7.5
14	O=C(CSc1ccc(-c2ccccn2)nn1)NCc1ccccc1	1.7	-19.0	4651	-39.6	2.6	14.7	-0.6
15	c1ccc(-c2cncnc2)nc1	0.5	-19.3	3449	·	5.9	8.4	-0.6
16	Cc1ccccc1C(=O)Nc1ccc(C(=O)NN=Cc2ccncc2)cc1	5.0	·	·	·	3.2	7.1	-1.8
17	COc1cc(C=Nn2c(-c3ccc4c(c3)NC(=O)CO4)csc2=Nc2cccc(C)c2)ccc1O	-7.1	·	·	·	-7.1	-1.0	-10.2
18	OC(CNC1CCCC1)COc1ccc(F)cc1 (stereo not given)	6.2	-10.3	3685	3.3	1.1	11.7	5.5
19	CCC(C)NC(=O)Nc1ccc(F)c(Cl)c1 (stereo not given)	-9.8	-25.7	2039	4.2	-5.2	-4.4	-0.5
20	Cc1oc(-c2ccccc2Cl)nc1CS(=O)CC(=O)NCCCN1CC(C)CC(C)C1 (stereo not given)	·	-33.5	5401	-0.3	·	·	·
21	O=C(CSc1nccn1-c1ccccc1)c1ccc(Cl)cc1	2.8	9.1	2584	-1.8	0.1	·	·
22	CCN(CCCNC(=O)C1CCN(S(=O)(=O)CC)CC1)c1cccc(C)c1	1.2	-8.5	8554	-12.5	7.0	16.2	4.1
23	CCc1ccc(NC(=O)N(CCCOC(C)C)C2CCN(C(C)=O)CC2)cc1	3.6	-23.8	5867	-6.5	3.7	13.5	16.9
24	O=[N+]([O-])c1cccc(/C=N/N2CCN(Cc3ccccc3)CC2)c1	·	-43.5	4581	-0.8	·	·	·
25	COc1ccc2c(c1)C(=O)C1NC(=O)NC(=O)C1(Br)N2 (stereo not given)	3.2	-25.6	3663	·	1.6	12.7	5.7
26	Cc1[nH]c2c(ccc3cccnc32)c1C	-2.5	-30.3	3191	-1.6	4.6	-4.3	2.0
27	Cc1ccc(/C=N/n2c(-c3cccnc3)n[nH]c2=S)s1	·	-23.3	1954	18.8	·	·	·
28	COc1cccc(C(=O)Nc2ccc3ccccc3c2)c1	0.9	-0.2	3404	10.0	1.8	5.4	3.2
29	Cn1c(=O)c([N+](=O)[O-])c(N2CCN(Cc3ccc4c(c3)OCO4)CC2)c2ccccc21	5.1	-24.5	3602	6.2	4.1	10.9	10.0
30	Cc1[nH]c2ccccc2c1C=NNC(=O)CNC(=O)c1ccc2c(c1)OCO2	-1.3	·	·	·	0.2	13.8	-0.1

# Single values from the list.
# PrP UTR inh result of `Cc1oc(-c2ccccc2Cl)nc1CS(=O)CC(=O)NCCCN1CC(C)CC(C)C1` (stereo not given) : -33.5
# ugtP null kill result of `Cc1[nH]c2ccccc2c1C=NNC(=O)CNC(=O)c1ccc2c(c1)OCO2` : -1.3

# Further structures:
no.	mol	ugtP null kill	PrP UTR inh	Autofluor counter	BJeLR viability	RN4220 kill	Mtb hypoxia inh	Mtb hypoxia inh growth
31	N#CC1=C(N)OC2=C(C(=O)CC(c3ccccc3)C2)C1c1cccnc1 (stereo not given)	8.6	-4.7	2335	-1.8	3.3	17.3	8.7
32	Cc1ccc(S(=O)(=O)N2CCCCC2)cc1NC(=O)c1cncc(Br)c1	7.1	-34.7	?	·	3.9	8.1	-4.6
33	Cc1cccc(NC(=O)C2C3C=CC(C4CC34)C2C(=O)O)c1 (stereo not given)	4.9	-19.6	3504	-0.1	1.9	·	·
34	CN(CC(=O)Nc1cccc(S(=O)(=O)N2CCCC2)c1)Cc1ccccc1	4.6	-32.5	?	·	3.1	-0.8	2.4
35	Cc1ccc(S(=O)(=O)NN=Cc2ccccc2O)cc1	1.5	·	·	·	3.9	-0.9	-1.1
36	N#CCCN/N=C(\Cc1nc2ccccc2[nH]1)c1ccccc1	·	-21.7	22721*	1.7	·	·	·
37	Cc1ccc(NCC(=O)c2ccccc2)cc1Cl	-1.3	-12.2	5797	15.2	2.0	-3.3	2.9
38	COc1ccc(N(C(=O)Cc2cccs2)C(C(=O)NC2CCCC2)c2ccncc2)cc1OC (stereo not given)	7.4	-14.0	3709	8.1	2.4	7.0	4.3
39	CCC(Sc1ncccc1C(=O)O)C(=O)N1CCCC1 (stereo not given)	12.4	·	11161	0.4	5.5	13.1	9.5
40	CSCC[C@H](NC(=O)OC(C)(C)C)C(=O)N1CCC(C(=O)N[C@@H](Cc2c[nH]c3ccccc23)C(=O)O)CC1	-4.7	-10.2	3847	2.0	1.6	-8.3	4.7
41	CCn1c(C)[n+](CC)c2ccc(S(=O)(=O)NC)cc21	0.2	-13.1	4592	3.3	5.5	-1.2	-1.1
42	CC(C)N(C)Cc1nnnn1CC(=O)NCCc1cccc(C(F)(F)F)c1	-2.6	-20.5	3114	-14.2	-0.4	-2.0	-7.9
43	CC(Cc1ccccc1)=NNC(=O)CNC(=O)c1cccc(F)c1	6.1	·	·	·	3.2	1.9	-1.8
44	CCn1ccc(C(=O)NC2=NCCS2)n1	12.1	-19.4	2233	5.3	3.7	-2.1	0.1
45	COc1ccccc1NS(=O)(=O)c1cc(NC(=O)c2cccnc2)ccc1N1CCCCC1	-9.9	-16.6	3859	·	3.3	4.7	2.9
46	CCN(CC(=O)Nc1ccccc1OC)C(=O)c1cccc(-n2cccc2)c1	-1.3	-8.4	5581	-7.8	1.0	6.0	5.9
47	COc1ccc(C2C(C(=O)N3CCN(c4ccccc4)CC3)c3ccccc3C(=O)N2C)cc1OC (stereo not given)	4.1	-12.2	8537	1.8	4.4	8.3	6.5
48	COc1ccc(/C=N/N2CCN(c3ccccc3OC)CC2)cc1OC	·	2.4	16494*	5.1	·	·	·
49	COc1ccccc1CCC(=O)OCC(=O)c1c(N)n(CC(C)C)c(=O)n(C)c1=O	1.2	-2.0	5900	1.8	4.4	9.8	0.0
50	COc1ccccc1/C=C/C(=O)OCC(=O)Nc1cc(C(F)(F)F)ccc1N1CCOCC1	-14.9	-8.2	1966	17.6	-2.3	12.7	1.3
51	Cc1ccccc1NS(=O)(=O)c1ccc(C(=O)NCC2(N3CCOCC3)CCCCC2)cc1	-2.0	-16.2	4117	·	4.0	18.0	36.8
52	CC(=O)c1ccc(OC(=O)C2CC(=O)N(c3cccc(C)c3)C2)cc1 (stereo not given)	11.9	-12.3	7432	-3.2	1.5	6.3	0.5
53	CCc1nonc1NC(=O)c1oc2ccc(Cl)cc2c1C	0.7	-13.1	5298	-3.6	3.2	2.4	4.3
54	O=C(C(=NNc1ccc([N+](=O)[O-])cc1)Sc1nnnn1-c1ccccc1)c1ccccc1	6.9	·	·	·	24.1	3.4	3.3
55	O=C(Nc1ccc(S(=O)(=O)N2CCCCC2)cc1)c1ccc(F)cc1	·	-22.9	4067	-4.5	·	·	·
56	O/N=C/c1ccc(OCc2ccccc2)c(Br)c1	·	-114.2	2420	-14.5	·	·	·
57	Cn1c(CN2CCCC2)c(C#N)c2ccccc21	6.1	-21.6	2676	1.9	3.4	-0.3	14.9
58	CCOC(=O)c1ccc(NC(=O)N2CCN(c3ccccc3OC)CC2)cc1	2.6	-33.2	2213	-1.4	1.9	-1.3	6.7
59	Cc1cc2c(c(=O)n1Cc1cccnc1)C(c1ccccc1)C(C#N)=C(N)O2 (stereo not given)	-4.0	-21.4	3096	7.9	-11.5	-1.0	7.1
60	COc1ccccc1OCc1nc(-c2ccc([N+](=O)[O-])cc2)no1	-1.4	-34.9	2153	-2.5	7.5	2.7	15.6
61	CCc1cccc2c(C(=O)CN3C(=O)NC(C)(c4cccc5ccccc45)C3=O)c[nH]c12 (stereo not given)	-11.8	-22.0	4260	9.1	-35.1	1.3	-4.5
62	Cc1cccc(NC(=S)N2CC3CC(C2)c2cccc(=O)n2C3)c1C (stereo not given)	9.0	-8.4	2386	0.8	8.4	10.5	4.3
63	Cc1ccccc1OCCC(=O)N1CCN(S(=O)(=O)c2ccc(Br)cc2)CC1	-4.1	-2.4	?	·	5.6	0.9	2.4
64	Cc1ccc(C=NNC(=O)c2cc(-c3ccncc3)nc3ccccc23)o1	11.6	·	·	·	5.0	8.6	-3.4
65	CSCC[C@H](NC(=O)OC(C)(C)C)C(=O)N1CCC(C(=O)N[C@@H](C)C(=O)O)CC1	0.9	-6.3	20586*	13.8	2.5	1.4	2.6
66	COc1ccc(C2=NN(C(=O)CSc3nnnn3C)C(c3ccco3)C2)cc1 (stereo not given)	0.0	0.4	8000	·	2.2	6.4	-6.9
67	Cc1ccc(CN(C)C(=O)COC(=O)CSc2cc(C)c3ccccc3n2)cc1	2.7	-4.7	5375	·	2.4	0.7	1.0
68	O=C(NC(=S)Nc1ccccc1N1CCOCC1)c1ccc(-c2ccccc2F)o1	15.0	-21.8	3640	-7.2	5.1	4.3	11.1
